Bioassay records (PubChem BioAssay)
VDR inhibitor: blocks the human vitamin D receptor | P11473 | VDR-SRC2-3 peptide fluorescence polarization, 2 h | Potency, µM, without a hit: max response, negative = inhibition, most hits filed as inhibitors | 0.93% of 400,000 active; active = well fitted inhibition curve with a large enough effect; inconclusive = small, poorly fitted or top-dose-only effect, or another doubt; inactive = no such curve, though single readings can be large or run the other way; note: series mostly up to about 120 µM
Target sequence (P11473 whole entry, looked up): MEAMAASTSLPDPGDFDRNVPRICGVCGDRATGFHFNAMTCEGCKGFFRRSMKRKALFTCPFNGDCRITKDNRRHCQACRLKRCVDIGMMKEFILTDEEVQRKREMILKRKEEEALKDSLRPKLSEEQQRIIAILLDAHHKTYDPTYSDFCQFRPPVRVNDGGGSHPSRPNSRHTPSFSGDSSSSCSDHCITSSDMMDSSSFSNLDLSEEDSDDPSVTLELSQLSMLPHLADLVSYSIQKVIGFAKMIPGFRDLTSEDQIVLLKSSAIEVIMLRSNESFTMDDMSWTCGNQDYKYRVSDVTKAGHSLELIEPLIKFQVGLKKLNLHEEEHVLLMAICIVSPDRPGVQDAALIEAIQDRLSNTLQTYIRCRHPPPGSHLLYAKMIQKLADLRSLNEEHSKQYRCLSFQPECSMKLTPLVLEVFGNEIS
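Fluorescence polarization assay measuring small-molecule disruption of VDR binding to the coregulator peptide SRC2-3. Compounds were pin-transferred (23 nl) into the reagent mix and incubated 2 h at room temperature before reading.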
An asterisk follows results filed as active; & = joins results of further samples. % is set by controls: 0 for no effect and ±100 for the full control effect; potency is the fitted concentration of half-maximal effect. These rows are one share of the data; the hit share may differ from the screen's.

What do the screens show for `Cc1cc(OC(=O)c2ccc(S(=O)(=O)N(C)C)cc2)cc(=O)o1`?
VDR inhibitor: -6%

What do the screens show for `O=C(Nc1nc2ccc(Cl)cc2s1)C1CCCO1` (centres undefined)?
VDR inhibitor: 16%

How did CCCCN(C(=N)N1CCCCC1)c1nc(C)c([N+](=O)[O-])c(=O)[nH]1 do in these assays?
VDR inhibitor: -5%

Results for N#Cc1c(NC(=O)CSc2ncnc3c2cnn3-c2ccccc2Cl)sc2c1CCCC2 ?
VDR inhibitor: 8%

Results for COCCn1c(C)cc(O)c(C(c2ccccc2)N2CCN(C)CC2)c1=O (centres undefined) ?
VDR inhibitor: 2%

What do the screens show for `CCOC(=O)N1CCN(C(=O)C2CCN(Cc3ccc(O)c(OCC)c3)CC2)CC1`?
VDR inhibitor: -11%

Results for Cc1ccccc1CN(C)C(C)C(=O)NCc1ccccc1 (centres undefined) ?
VDR inhibitor: -2%

Results for Cc1ccc(NS(=O)(=O)c2cc(-c3cnc(C4CC4)o3)ccc2C)cc1Cl ?
VDR inhibitor: 0%

What do the screens show for `O=C(O)C1=C[C@H](c2ccc(F)cc2)C[C@H](OCc2ccc(CO)cc2)O1`?
VDR inhibitor: -10%

How did Cc1ccn2c(=O)nc(SCC(=O)NCc3ccc(F)cc3)nc2c1 do in these assays?
VDR inhibitor: 18%

How did Cc1ccc(C)n1Cc1ccc(C(=O)O)cc1 do in these assays?
VDR inhibitor: 24%

Results for COc1ccc(-c2n[nH]c(=S)o2)c(OC)c1 ?
VDR inhibitor: 3%

Of the compounds above, 8 contain nitrogen in an aromatic ring:
What do the screens show for `O=C(Nc1nc2ccc(Cl)cc2s1)C1CCCO1` (centres undefined)?
VDR inhibitor: 16%

How did CCCCN(C(=N)N1CCCCC1)c1nc(C)c([N+](=O)[O-])c(=O)[nH]1 do in these assays?
VDR inhibitor: -5%

Results for N#Cc1c(NC(=O)CSc2ncnc3c2cnn3-c2ccccc2Cl)sc2c1CCCC2 ?
VDR inhibitor: 8%

Results for COCCn1c(C)cc(O)c(C(c2ccccc2)N2CCN(C)CC2)c1=O (centres undefined) ?
VDR inhibitor: 2%

Results for Cc1ccc(NS(=O)(=O)c2cc(-c3cnc(C4CC4)o3)ccc2C)cc1Cl ?
VDR inhibitor: 0%

How did Cc1ccn2c(=O)nc(SCC(=O)NCc3ccc(F)cc3)nc2c1 do in these assays?
VDR inhibitor: 18%

How did Cc1ccc(C)n1Cc1ccc(C(=O)O)cc1 do in these assays?
VDR inhibitor: 24%

Results for COc1ccc(-c2n[nH]c(=S)o2)c(OC)c1 ?
VDR inhibitor: 3%

Following part.
Results for Cc1ccc(NC(=O)c2cncc(Br)c2)cc1S(=O)(=O)N(C)C ?
VDR inhibitor: 45µM*

Results for COc1ccc(N(CC(=O)N2CCN(Cc3ccccc3)CC2)S(C)(=O)=O)cc1Cl ?
VDR inhibitor: -14%

Results for C/C(=N\Nc1ccc(C(F)(F)F)cc1[N+](=O)[O-])C1CC1 ?
VDR inhibitor: -5%

How did CC(=O)O[C@H]1C(=O)[C@@]2(C)C([C@H](OC(=O)c3ccccc3)[C@]3(O)C[C@H](OC(=O)[C@H](O)[C@@H](NC(=O)c4ccccc4)c4ccccc4)C(C)=C1C3(C)C)[C@]1(OC(C)=O)CO[C@@H]1C[C@H]2O (some centres undefined) do in these assays?
VDR inhibitor: -4%

Results for CC1CCC/C(=N\NS(=O)(=O)c2ccccc2)C1 (centres undefined) ?
VDR inhibitor: -7%

What do the screens show for `Cc1cccc(NS(=O)(=O)c2ccc3oc(=O)c4ncn(C)c4c3c2)c1C`?
VDR inhibitor: 4%

How did CCc1ccc(NC(=O)c2ccc3c(c2)nnn3CC)cc1 do in these assays?
VDR inhibitor: 1%

What do the screens show for `Cc1cc(NC(=O)C2CCN(S(=O)(=O)c3ccc(Br)s3)CC2)ccc1Br`?
VDR inhibitor: -8%

How did CCC1=NN(C(=O)COc2ccccc2)C(O)(c2ccc(Br)cc2)C1 (centres undefined) do in these assays?
VDR inhibitor: -7%

What do the screens show for `COc1cc([N+](=O)[O-])ccc1NC(=O)Cc1ccc(C)cc1`?
VDR inhibitor: -9%

How did CN(Cc1ccccc1)C(=S)NC(=O)c1ccccc1 do in these assays?
VDR inhibitor: 0%

Results for COc1ccc(Cl)cc1/C=C1/C(=O)ON=C1C ?
VDR inhibitor: inconclusive

Results for Cn1c(=NC(=O)c2ccco2)sc2cccc(F)c21 ?
VDR inhibitor: -6%

What do the screens show for `CC(=O)Nc1sc(C)c(C)c1C(=O)OCC(=O)NCc1ccccc1`?
VDR inhibitor: -9%

What do the screens show for `CCCN(CCC)CCCNC(=O)CCNS(=O)(=O)c1ccc(Br)cc1`?
VDR inhibitor: -12%

What do the screens show for `CC(C)Oc1ccc(S(=O)(=O)N2CCOCC2)cc1NC(=O)C1=COCCO1`?
VDR inhibitor: -17%

How did Cc1ccccc1-c1noc(-c2ccc(NCC3CCCO3)c([N+](=O)[O-])c2)n1 (centres undefined) do in these assays?
VDR inhibitor: 5%

Results for CCOC(=O)C1=C(COC(=O)c2ccccc2[N+](=O)[O-])NC(=O)NC1C (centres undefined) ?
VDR inhibitor: 3%

Results for Cc1cc(O)c(C(C[N+](=O)[O-])c2ccc(Cl)cc2)c(=O)o1 (centres undefined) ?
VDR inhibitor: -27%

How did COc1cc(/C=C/C(=O)OCC(=O)N(C)Cc2ccccc2)cc(OC)c1OC do in these assays?
VDR inhibitor: -13%

How did O=C(COC(=O)Cc1ccsc1)NC(c1ccccc1)c1ccccc1 do in these assays?
VDR inhibitor: -24%

How did Cc1ccc(NC(=O)COC(=O)c2ccc(OC(F)F)cc2)cc1S(=O)(=O)N1CCCCC1 do in these assays?
VDR inhibitor: inconclusive

How did Nc1nc2ccccc2cc1-c1cccs1 do in these assays?
VDR inhibitor: 9%

How did C=CCN(c1ccccc1Cl)S(=O)(=O)c1cccc(C(=O)OCC(=O)N(C)C2CCS(=O)(=O)C2)c1 (centres undefined) do in these assays?
VDR inhibitor: 14%

What do the screens show for `Cc1ccc(S(=O)(=O)NC(=O)O[C@@H]2C(=O)c3cc(Br)ccc3O[C@H]2c2ccc3c(c2)OCO3)cc1`?
VDR inhibitor: 6%

How did Cc1ccc[n+](C(C)C(=O)Nc2ccc([N+](=O)[O-])cc2C)c1 (centres undefined) do in these assays?
VDR inhibitor: 14%

What do the screens show for `CC(=O)c1ccc(OCC(=O)Nc2ccccc2C(=O)NC2CC2)cc1`?
VDR inhibitor: -8%

What do the screens show for `O=C(Cc1cccc([N+](=O)[O-])c1)Nc1ccc(C(=O)N2CCCCC2)cc1`?
VDR inhibitor: -1%

How did Cc1nn(C)c2c1c(C(F)(F)F)cc(=O)n2CC(=O)N1CCCCC1 do in these assays?
VDR inhibitor: 17%

How did CCOC(=O)c1c(C)oc2nc(C)nc(N(CC(C)C)CC(C)C)c12 do in these assays?
VDR inhibitor: 3%

What do the screens show for `O=C(Nc1cccc(C(F)(F)F)c1)C(=O)N1CCCCC1`?
VDR inhibitor: 28%

What do the screens show for `CN(C)S(=O)(=O)c1cccc(NC(=O)COC(=O)COc2ccccc2[N+](=O)[O-])c1`?
VDR inhibitor: -12%

How did O=C(N/N=C/c1cccn1-c1ccc(O)cc1)c1cccc2ccccc12 do in these assays?
VDR inhibitor: -12%

How did CCOc1ccc(NC(=O)N(CC(C)C)CC(C)C)cc1 do in these assays?
VDR inhibitor: 9%

What do the screens show for `CN1CCN(c2nnc(-c3ccc(Cl)cc3)c3ccccc23)CC1`?
VDR inhibitor: 16%

How did COc1cc(S(=O)(=O)n2cnc(C)c2)ccc1Br do in these assays?
VDR inhibitor: -5%

What do the screens show for `CCCn1nc([N+](=O)[O-])c(C(C#N)c2nc3ccccc3s2)c(Cl)c1=O` (centres undefined)?
VDR inhibitor: inconclusive

What do the screens show for `O=C(CN1CCCCCC1)Nc1cc(C(F)(F)F)ccc1Cl`?
VDR inhibitor: 1%

What do the screens show for `O=C(c1ccc(Cl)cc1)c1cn[nH]c1-c1ccccc1O`?
VDR inhibitor: -1%

Results for O=c1c(Cc2ccccc2)c(O)nc2n1CCCS2 ?
VDR inhibitor: 8%

What do the screens show for `NC(=O)CC(NC(=O)Cc1cccc2ccccc12)c1ccc(NCC2CC2)c([N+](=O)[O-])c1` (centres undefined)?
VDR inhibitor: -22%

What do the screens show for `CCOc1ccc(-c2nnc(SCc3nnc(-c4ccccc4)o3)n2-c2ccccc2F)cc1`?
VDR inhibitor: 2%

What do the screens show for `Cc1cc(-c2ccc(C)c(S(=O)(=O)NCCCN(Cc3ccccc3)C(C)C)c2)on1`?
VDR inhibitor: -6%

Results for COc1ccc(Nc2ncnc3onc(C)c23)cc1Cl ?
VDR inhibitor: -2%

Results for O=C(C1=C[C@@H](c2coc3ccccc3c2=O)C[C@@H](OCc2ccc(CO)cc2)O1)N1CCCCCCC1 ?
VDR inhibitor: -17%

Results for Fc1ccc(Nc2c3c(nc4ccccc24)CCC3)cc1 ?
VDR inhibitor: 6%&4%

How did CCN1C(=O)[C@H]2[C@@H](c3ccc(-c4ccccc4)cc3)N3CCCC[C@@]3(C(=O)OC)[C@H]2C1=O do in these assays?
VDR inhibitor: -4%

Results for Cn1cc(CCNC(=O)C2CCC(=O)N(CCc3ccc(Cl)cc3)C2)cn1 (centres undefined) ?
VDR inhibitor: -17%

How did Cc1nn(-c2ccc(Cl)cc2)c(Cl)c1/C=N/NC(=O)c1ccc(NS(=O)(=O)c2cccs2)cc1 do in these assays?
VDR inhibitor: inconclusive

How did COc1ccc(C)cc1NC(=O)CCN1CCN(c2ccccc2)CC1 do in these assays?
VDR inhibitor: 29%

Results for COc1ccc(NC(C)=O)cc1NC(=O)CN1CCN(S(=O)(=O)c2ccc(C(C)C)cc2)CC1 ?
VDR inhibitor: 7%

Results for COc1ccc(NC(=O)c2cc([N+](=O)[O-])ccc2NC(=O)CNCc2ccccn2)c(OC)c1 ?
VDR inhibitor: 32µM*

Results for CCC(C)C(=O)N1CCc2cc(-c3csc(N)n3)ccc21 (centres undefined) ?
VDR inhibitor: 10%

How did Cc1ccc(NC(=O)c2cc(-c3ccco3)on2)cc1C do in these assays?
VDR inhibitor: 7%

What do the screens show for `CC1=Nc2ccccc2/C1=C/c1sc(=O)n(CC(=O)N2CCCC2)c1O`?
VDR inhibitor: -6%

How did CC1Cc2cc(/C(O)=C3/C(=O)C(=O)N(CCN4CCOCC4)C3c3cccc(O)c3)ccc2O1 (centres undefined) do in these assays?
VDR inhibitor: 8%

What do the screens show for `O=C(Nc1cccc(Cl)c1Cl)c1ccncc1`?
VDR inhibitor: 2%

How did NC(=S)NN=C1CCCCC12CCCC2 do in these assays?
VDR inhibitor: -3%

How did COc1ccc(N2C(=O)c3ccccc3C2=O)cc1 do in these assays?
VDR inhibitor: -13%

Results for O=S(=O)(c1ccc2[nH]ccc2c1)N1CCCCCC1 ?
VDR inhibitor: -18%

What do the screens show for `COC(=O)C1=NN(c2ccccc2)C2(S1)S/C(=C\c1ccccc1)C(=O)N2c1ccccc1` (centres undefined)?
VDR inhibitor: -9%

What do the screens show for `O=C(NCCc1ccccc1F)C(=O)Nc1nccs1`?
VDR inhibitor: -8%

How did COc1cccc2sc(N3CCN(C(=O)CCS(=O)(=O)c4ccc(F)cc4)CC3)nc12 do in these assays?
VDR inhibitor: 8%

What do the screens show for `Cc1ccc2c(c1)N=C(c1ccc(F)cc1)CO2`?
VDR inhibitor: 14%

Results for O=C(CSc1nccc(-c2cccs2)n1)Nc1ccc(F)c(Cl)c1 ?
VDR inhibitor: 6%

What do the screens show for `Cc1ccc(C(=O)COC(=O)CCN2C(=O)C3C4CC(C(Br)C4Br)C3C2=O)cc1` (centres undefined)?
VDR inhibitor: 12%

Results for O=C(CSc1n[nH]c(=O)[nH]c1=O)Nc1ccc(C(=O)O)cc1 ?
VDR inhibitor: 6%

How did O=C1CC(c2cccc([N+](=O)[O-])c2)c2ccc3ccccc3c2N1 (centres undefined) do in these assays?
VDR inhibitor: -11%

Results for Cc1ccc(CNC(=O)NCc2ccccc2)cc1 ?
VDR inhibitor: -6%

How did CC(Sc1ccc2ccccc2n1)C(=O)O (centres undefined) do in these assays?
VDR inhibitor: -3%

Results for O=c1[nH]cc(C#Cc2ccccc2)c2ncncc12 ?
VDR inhibitor: 4%

How did C/C(=N\NC(=O)CNC(=O)c1ccco1)c1ccc(Br)cc1 do in these assays?
VDR inhibitor: 8%

Results for CCCCNC(=O)c1cnc2c(-c3ccc(OCC)c(OCC)c3)c(C)nn2c1-c1ccccc1 ?
VDR inhibitor: 19%

Results for O=C(NCc1ccc2c(c1)OCO2)c1cc(=O)[nH]c2ccccc12 ?
VDR inhibitor: -13%

Results for O=C1CC(c2ccc(F)cc2)Cc2nc(NCC3CCCO3)ncc21 (centres undefined) ?
VDR inhibitor: 6%

What do the screens show for `CCn1cc(C2=NOC(C(=O)Nc3c(C)nn(Cc4ccc(F)cc4)c3C)C2)c(C)n1` (centres undefined)?
VDR inhibitor: -2%

Results for Cc1ccc(S(=O)(=O)N2CCCCC2)cc1C(=O)NCCN1CCOCC1 ?
VDR inhibitor: -4%

What do the screens show for `Cc1cc(N=Nc2ccc3ccccc3c2)ccc1O`?
VDR inhibitor: -7%

How did CC(=O)N/C(=C\c1ccccc1)C(=O)OC(C)C(=O)Nc1ccccc1F (centres undefined) do in these assays?
VDR inhibitor: -15%

How did CC1(C(=O)O)Cc2ccccc2C(=O)O1 (centres undefined) do in these assays?
VDR inhibitor: 2%

Results for NC(=O)c1cc([N+](=O)[O-])ccc1NCCc1ccccc1 ?
VDR inhibitor: -9%

How did CC1=C(C(N)=O)C(c2ccc(C(C)C)cc2)n2nc(SCc3ccccc3)nc2N1 (centres undefined) do in these assays?
VDR inhibitor: -9%

Results for C=C(C)CN(CC)C(=O)CSc1nc(O)cc(=O)n1C1CCCC1 ?
VDR inhibitor: -7%

What do the screens show for `Cc1ccc(C)c(OCC(=O)NNC(=O)CSC(=S)N2CCCC2)c1`?
VDR inhibitor: -9%

How did Clc1ccccc1-c1nn2c(Cn3cnc4ccccc43)nnc2s1 do in these assays?
VDR inhibitor: -23%
